# PGK inhibitor = blocks T. brucei phosphoglycerate kinase | PGK/GAPDH coupled, Kinase-Glo luminescence, 60 min | Potency, µM (top dose mostly 57.5 µM), for inactives: top-dose activity change, negative = inhibition, hits mostly inhibitors | P07378 | actives 0.043% (n = 380,000) | AID 602233; note: % is set by controls: 0 for no effect and ±100 for the full control effect; nearly all actives have a fitted effect of over 60% in size
#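 Luminescent ATP detection (Kinase-Glo Plus) follows a 60-minute room-temperature incubation, with wells lacking PGK as controls. Buffer: 100 mM TEA (pH 7.6), 5 mM MgCl2, 0.01% Tween-20. Coupling enzyme GAPDH (100 nM final) supplies unstable 1,3-BPG in-well.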
# JMJD2A Tudor = inhibitors of human JMJD2A Tudor domain; actives 4.4% (n = 390,000); AlphaScreen JMJD2A-Tudor / H3K4me3 peptide binding; Potency, µM (highest dose often 114 µM), inactives show top-dose activity change, negative = inhibition, actives largely listed as inhibitors; O75164; note: % is set by controls: 0 for no effect and ±100 for the full control effect; nearly all actives have a fitted effect of over 50% in size
# GLS inh = glutaminase GLS (human) inhibition. O94925. Potency, µM (highest dose often 45.5 µM), without a hit: at the top dose activity change, negative = inhibition, actives largely listed as inhibitors. AID 624170. GLS enzymatic activity, qHTS titration. actives 0.21% (n = 410,000); note: % is set by controls: 0 for no effect and ±100 for the full control effect
# Target sequence (O94925 whole entry, looked up): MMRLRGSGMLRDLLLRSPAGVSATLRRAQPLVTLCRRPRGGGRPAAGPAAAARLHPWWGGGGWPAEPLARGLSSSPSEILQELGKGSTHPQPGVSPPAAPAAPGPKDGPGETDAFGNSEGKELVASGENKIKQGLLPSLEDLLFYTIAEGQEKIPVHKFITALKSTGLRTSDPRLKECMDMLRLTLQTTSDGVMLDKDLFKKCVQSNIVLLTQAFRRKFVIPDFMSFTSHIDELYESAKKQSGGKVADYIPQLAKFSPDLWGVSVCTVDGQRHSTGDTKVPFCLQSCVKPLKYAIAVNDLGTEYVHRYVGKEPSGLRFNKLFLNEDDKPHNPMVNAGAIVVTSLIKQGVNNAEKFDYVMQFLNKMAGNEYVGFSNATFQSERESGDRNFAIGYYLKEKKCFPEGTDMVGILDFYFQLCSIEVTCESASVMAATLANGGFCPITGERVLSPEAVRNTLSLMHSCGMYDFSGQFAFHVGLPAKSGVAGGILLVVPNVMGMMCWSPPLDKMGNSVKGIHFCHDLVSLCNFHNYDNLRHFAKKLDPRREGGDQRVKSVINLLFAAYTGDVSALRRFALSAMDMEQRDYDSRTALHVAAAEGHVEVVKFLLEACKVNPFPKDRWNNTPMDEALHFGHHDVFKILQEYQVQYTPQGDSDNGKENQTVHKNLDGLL
#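 Human kidney-isoform GLS in 45 mM KH2PO4 pH 8.2, 0.02% Tween-20, with compound, started with 1mM L-Glutamine (added stock). Glutamate oxidase/HRP/Amplex red coupled fluorescence read at start and after 30 min at RT.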
# G9a inh = inhibitors of human histone lysine methyltransferase G9a; Q96KQ7; G9a H3K9 monomethylation, AlphaScreen, 2 h; Potency, µM (series often up to 102 µM), without a hit: at the highest dose activity, negative = inhibition, actives largely listed as inhibitors; actives 8.8% (n = 350,000); AID 504332; note: % is set by controls: 0 for no effect and ±100 for the full control effect; nearly all actives have a fitted effect of over 75% in size
#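 Quantitative HTS format: methyltransferase activity on a biotin-tagged H3K9 peptide is measured by AlphaScreen, using a rabbit anti-monomethyl-H3K9 antibody with streptavidin donor and anti-IgG acceptor beads. Final levels are 20 nM enzyme, 500 nM peptide, 20 uM SAM; 2 h RT.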
# POLI inh = inhibitors of human DNA polymerase iota | Pol iota fluorescent replication assay, 10 min | Potency, µM (highest dose often 115 µM), inactives show top-dose activity, negative = inhibition, usual class: inhibitors | Q9UNA4 | actives 1% (n = 390,000)
#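 Fluorescent replication assay read twice, at 0 min and 10 min after adding 50 nM (final) substrate. Enzyme (10 nM) and compounds were first incubated 15 min at room temperature; enzyme-free buffer wells were negative controls.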
# HP1b chromo inh = blocks HP1-beta chromodomain binding to methylated histone tails | P83916 | AlphaScreen HP1-beta / biotin-H3K9me3 peptide binding | Potency, µM (highest dose often 114 µM), without a hit: top-dose activity change, negative = inhibition, usual class: inhibitors | actives 0.56% (n = 390,000) | AID 540317; note: nearly all actives have a fitted effect of over 70% in size; inactives centre near 23
# Target sequence (P83916 whole entry, looked up): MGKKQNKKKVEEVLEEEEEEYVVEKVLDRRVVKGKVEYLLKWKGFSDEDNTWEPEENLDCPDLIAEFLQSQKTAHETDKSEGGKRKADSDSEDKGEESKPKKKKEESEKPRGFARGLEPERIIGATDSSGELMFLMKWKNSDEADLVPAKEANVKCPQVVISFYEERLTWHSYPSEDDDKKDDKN
#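 Compound inhibition of the preformed complex between 50 nM HP1-beta and 50 nM biotinylated H3K9me3 peptide was read by AlphaScreen. Buffer was PBS pH 7.4 with 0.01% Tween-20. Incubations ran 30 min at room temperature, with 10 ug/mL donor/acceptor beads.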
# BLM helicase inh = Bloom syndrome helicase (human) inhibition | Potency, µM (series often up to 56.1 µM), without a hit: at the top dose activity change, negative = inhibition, usual class: inhibitors | actives 0.2% (n = 350,000) | recombinant BLM DNA unwinding, fluorescence dequenching | P54132 | AID 2528;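 note: plate controls were vehicle for no effect and no enzyme for full effect; nearly all actives have a fitted effect of over 35% in size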
# Pin1 inh = inhibitors of human Pin1. Q13526. Pin1 FP peptide displacement, HiFluor488, 10 min. Potency, µM (titrated, usually from 115 µM), for inactives: at the highest dose activity, negative = inhibition, usual class: inhibitors. actives 0.009% (n = 390,000); active = well fitted inhibition curve with a large enough effect in the polarisation, with a control signal flat, not every such curve was filed as active; inconclusive = small, poorly fitted or top-dose-only effect, or effect the other way, or a change in a side signal; inactive = no such curve, though single readings can be large or run the other way; the % refers to the polarisation; note: % is set by controls: 0 for no effect and ±100 for the full control effect
# Target sequence (Q13526 whole entry, looked up): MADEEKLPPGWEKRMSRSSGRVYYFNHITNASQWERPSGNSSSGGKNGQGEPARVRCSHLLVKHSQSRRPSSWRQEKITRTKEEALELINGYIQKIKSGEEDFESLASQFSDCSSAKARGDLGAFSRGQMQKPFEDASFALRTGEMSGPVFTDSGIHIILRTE
# Numbers without * were called inactive; i = inactive; ? = inconclusive; / = not tested or not shown; & = joins results of further samples; ! = repeats disagree; [ ] = remark or other dose. Unless noted, calls come from the whole dose curve; as a rule, active = well fitted curve in the direction sought with a large enough effect; inconclusive = small, poorly fitted or top-dose-only effect, or another doubt; inactive = no such curve, though single readings can be large; an effect the other way counts as inactive or inconclusive. Potency is the fitted concentration of half-maximal effect.
SMILES,PGK inhibitor,JMJD2A Tudor,GLS inh,G9a inh,POLI inh,HP1b chromo inh,BLM helicase inh,Pin1 inh
Cc1ccc(NC(=O)c2sc3ncn(CC(=O)N4CCOCC4)c(=O)c3c2C)c(Br)c1,-4%,3%,-7%,/,-2%,38%,-2%,4%
COc1ccc2c(c1)OCC1=C2CCC2(C)C(=O)CC=C12 (configuration not stated),/,/,/,?,/,/,-7%,/
Cc1ccc(Nc2nnc(SCC(=O)NCc3ccco3)s2)cc1,-2%,-30%,17%,-33%[59 µM],-21%,3%,1%,?
Cc1nc(SCC2(C)CC2(Cl)Cl)n[nH]1 (configuration not stated),-6%,-3%,3%,-4%,33%[activator],21%,-3%,-6%
CNC(=S)N/N=C(\C)c1ccc(Cl)c(Cl)c1,-8%,?,7%,-2%,161%[activator],-26%,-4%,-5%
COc1ccc(Cn2nnnc2C(C(C)C)N(Cc2ccco2)Cc2cccs2)cc1 (configuration not stated),6%,-19%,1%,-46%,16%,33%[activator],-10%,16%
COc1cccc(-c2nc(-c3ccccc3)no2)c1,-5%,176%[activator],-4%,82%[activator][59 µM],13%,298%,-2%,2%
CCN(CC)c1ccc2c(C)c(Cl)c(=O)oc2c1,-1%,294%[activator],7%,13µM*,9%,392%[activator],-3%,?
Cc1[nH]n(-c2ccccc2)c(=O)c1/C=C1\C=NN=C1c1ccccc1,18%,?,0%,/,?,?,-23%,1%
Cc1ccc(NC2CCCCC2NS(=O)(=O)c2ccccc2)c(C)c1 (configuration not stated),-9%,?,9%,45µM*,17%,?,-12%,-7%
COc1ccc2nc(N(CCN(C)C)C(=O)c3ccc4ccccc4c3)sc2c1,-1%,?,1%,/,18%,59%[activator],-10%,3%
O=[N+]([O-])c1cnccc1Nc1ccccc1,-7%,?,15%,0%,34%[activator],-13%,-1%,-9%
CCOc1cccc(=O)c2c(C)n(Cc3ccco3)c(C)c12,0%,13%,/,?,12%,28%,?,-4%
Cc1cccc(CNC(=O)CCCN2C(=O)CCn3nc(-c4cccn4C)cc32)c1,i,?,-3%,-43%[59 µM],0%,-13%[57 µM],2%,-13%
CCCCNC(=O)n1c(SC)nc2ccccc21,0%,0%,7%,-4%,9%,50%[activator],0%,0%
Cc1cc(SCC(=O)N2CCC(c3noc4ccc(F)cc34)CC2)nc2ccccc12,0%,-27%,0%,-29%[12.7 µM],?,29%,-4%,?
Cc1cc([N+](=O)[O-])ccc1NC(=O)c1sc2ncn(CC(=O)N3CCOCC3)c(=O)c2c1C,3%,-4%,5%,14%[59 µM],-3%,20%,-4%,1%
CCc1ccccc1NC(=O)/C(=C/c1ccco1)c1ccccc1,6%,-12%,-1%,40µM*,7%,?,-24%,2%
CCc1cc(C(=O)OC)c(NC(=O)CSc2nccn2C)s1,5%,?,20%,/,26%,-19%,-3%,3%
COc1ccc2c(c1)c(C(=O)CNc1nc(C)cs1)c(C)n2C,-7%,?,2%,45µM*,?,-32%,-10%,2%
Cc1ccc2[nH]c(=O)c(-c3noc(CC(C)C)n3)cc2c1,0%,13%,3%,/,32%[activator],53%[activator],-2%,6%
O=C(c1cccc([N+](=O)[O-])c1)N1c2ncnn2C2(CCCCC2)[C@@H]2CCCC[C@@H]21,-3%,?,-2%,-41%[59 µM],?,-15%,-2%,4%
COc1ccc(NC(=O)CSc2ccccc2)c([N+](=O)[O-])c1,i,?,-1%,?,-27%,?,-10%,-2%
Cc1ccc(-n2ncc3c(NCCCn4ccnc4)ncnc32)cc1C,-4%,?,0%,-11%[59 µM],12%,3%,-10%,-2%
CCOC(=O)/C(C)=N/Nc1nc(-c2ccc(NC(C)=O)cc2)cs1,-5%,-23%,-16%,/,-17%,4%,3%,8%
# Remaining list, next part.
SMILES,PGK inhibitor,JMJD2A Tudor,GLS inh,G9a inh,POLI inh,HP1b chromo inh,BLM helicase inh,Pin1 inh
CCc1nnc(SCC(=O)Nc2cc(OC)ccc2OC)nc1CC,0%,-1%,2%,5%[59 µM],1%,27%,0%,-2%
O=c1c2oc3ccccc3c2n(Cc2cccc(F)c2)c(=O)n1Cc1ccco1,i,-13%,-2%,-10%[59 µM],-11%,9%,-6%,10%
Nc1ccc2nc(C(F)(F)F)[nH]c2c1,9%,-8%,20%,45µM*,30%[activator],67%[activator],-4%,-6%
Cc1ccc(CNc2cc(-c3nn4c(C)nnc4s3)ccc2C)s1,4%,-14%,-1%,10%[12.7 µM],12%,39%[activator],-1%,16%
Cc1ccc(NC(=O)/C=C\C(=O)NCC(=O)O)cc1,i,?,-2%,10µM*,-10%,65%[activator],-3%,-7%
CC1(C)C(=O)OC(c2cccn2-c2cccc([N+](=O)[O-])c2)C2(CCCCC2)C1=O (configuration not stated),/,/,/,?,/,/,-5%,/
O=[N+]([O-])c1ccccc1S(=O)(=O)N1CCN(CC2CC=CCC2)CC1 (configuration not stated),i,-26%[11.4 µM],3%,20µM*,114%[activator],?,-7%,-10%
CCC(C)c1ccccc1NC(=O)c1cc2cccc([N+](=O)[O-])c2[nH]1 (configuration not stated),0%,-34%,11%,/,133%[activator],-22%,-9%,-4%
Cc1cc(SCC(=O)NC(=O)NCc2ccco2)nc2c(C)cccc12,i,-26%,3%,?,?,8%,?,22%
Cc1nc2cc(F)ccc2n1C1CCN(S(=O)(=O)c2ccccc2)CC1,i,-21%[57.1 µM],-4%,10%[12.7 µM],26%,-5%,1%,?
CC(C)(C)Nc1nc(NN)nc(NC(C)(C)C)n1,-3%,?,1%,10%[59 µM],10%,35%,-2%,-5%
COc1cccc(OCC(=O)NNC(=O)Cc2cccs2)c1,-9%,-11%[57.1 µM],6%,26%[59 µM],15%,28%,0%,-1%
CCOc1ccc(NC(=S)c2ccc3ccccc3n2)cc1,0%,?,-1%,6.3µM*,9%,34%,-2%,0%
CSc1nc2oc3c(c2c2nncn12)CC(C)(C)SC3,-1%,-35%,9%,22µM*,15%,54%[activator],-2%,?
O=C(c1ccc(COc2ccccc2Cl)o1)N1CCN(Cc2ccc3c(c2)OCO3)CC1,0%&5%,?,-1%&11%,50µM*!,?,?,-8%&-7%,9%&-8%
CC(/C=N/n1c(C2CCCCC2)n[nH]c1=S)=C\c1ccccc1,9%,?,?,-12%[0.501 µM],-3%,?,-15%,-17%
COC(=O)c1cc2ccsc2n1CC(=O)N(C)c1ccccc1,15%,-11%,2%,13%[12.7 µM],22%,30%,-2%,-11%
CCc1cccc(CC)c1N1C(=O)c2cc(N3CCOCC3)c([N+](=O)[O-])cc2C1=O,i,?,-2%,35µM*,13%,?,-1%,?
CCC(=O)Nc1sc2c(c1C(=O)Nc1ccccc1C)CCC(C)C2 (configuration not stated),-11%,-18%,-4%,?,29%,36%,0%,5%
COc1cccc(OCC(=O)NNC(=O)C(=O)N2CCCC2)c1,1%,-7%,0%,-6%,10%,33%,2%,-5%
CCN(CC)S(=O)(=O)c1nnc(NC(=O)COc2ccccc2F)s1,/,?,-2%,?,-6%,-34%,-5%,1%
CC1CCCC(C)N1/N=C/c1ccccc1OC(F)F (configuration not stated),-10%,?,12%,-37%,28%,7%,0%,0%
COc1ccc(CNC(=O)c2ccc(Cn3nc(C)c([N+](=O)[O-])c3C)o2)cc1,-3%,-7%,9%,-1%,-13%,27%,-9%,2%
CC(=O)c1cc2c(cc1NC(=O)CCn1cccc1)OCO2,-3%,-20%,19%,?,3%,6%,-5%,-4%
COc1ccc(/C=N/N2CCOCC2)cc1OCc1ccccc1,i,?,2%,50µM*,87%[activator],-25%,-6%,-4%
COc1cccc(OCC(=O)NN=C2c3ccccc3-c3ccccc32)c1,-10%,-36%,5%,4%,?,-14%,-11%,17%
Cn1cccc1Cc1nnc(SCC(=O)Nc2ccc3c(c2)OCCO3)n1-c1ccc(F)cc1,1%,?,2%,45µM*,47%[activator],?,-5%,-1%
Cc1ccccc1-n1cc(-c2ccccc2)nc1SCC(=O)Nc1ccc(F)cc1,i,?,-8%,?,2%,-20%,-8%,0%
CCN(Cc1ccccc1)C(=O)c1nc(-c2cccc(F)c2)n2c1CCCCC2,-1%,?,-3%,-50%[59 µM],?,-29%,-3%,1%

# Compounds above containing an aryl thioether with sulfur outside any ring:
SMILES,PGK inhibitor,JMJD2A Tudor,GLS inh,G9a inh,POLI inh,HP1b chromo inh,BLM helicase inh,Pin1 inh
Cc1ccc(Nc2nnc(SCC(=O)NCc3ccco3)s2)cc1,-2%,-30%,17%,-33%[59 µM],-21%,3%,1%,?
Cc1nc(SCC2(C)CC2(Cl)Cl)n[nH]1 (configuration not stated),-6%,-3%,3%,-4%,33%[activator],21%,-3%,-6%
CCCCNC(=O)n1c(SC)nc2ccccc21,0%,0%,7%,-4%,9%,50%[activator],0%,0%
Cc1cc(SCC(=O)N2CCC(c3noc4ccc(F)cc34)CC2)nc2ccccc12,0%,-27%,0%,-29%[12.7 µM],?,29%,-4%,?
CCc1cc(C(=O)OC)c(NC(=O)CSc2nccn2C)s1,5%,?,20%,/,26%,-19%,-3%,3%
COc1ccc(NC(=O)CSc2ccccc2)c([N+](=O)[O-])c1,i,?,-1%,?,-27%,?,-10%,-2%
CCc1nnc(SCC(=O)Nc2cc(OC)ccc2OC)nc1CC,0%,-1%,2%,5%[59 µM],1%,27%,0%,-2%
Cc1cc(SCC(=O)NC(=O)NCc2ccco2)nc2c(C)cccc12,i,-26%,3%,?,?,8%,?,22%
CSc1nc2oc3c(c2c2nncn12)CC(C)(C)SC3,-1%,-35%,9%,22µM*,15%,54%[activator],-2%,?
Cn1cccc1Cc1nnc(SCC(=O)Nc2ccc3c(c2)OCCO3)n1-c1ccc(F)cc1,1%,?,2%,45µM*,47%[activator],?,-5%,-1%
Cc1ccccc1-n1cc(-c2ccccc2)nc1SCC(=O)Nc1ccc(F)cc1,i,?,-8%,?,2%,-20%,-8%,0%

# Only part of the results is shown, so the mix of outcomes need not match the whole.
